# FGF22 binding: shifts melting point of recombinant human FGF22. Q9HCT0. recombinant FGF22 thermal shift, SYPRO orange fluorescence; percent of sucrose octasulfate shift, DMSO zero. calls only at 9.99 µM. hit rate 1.5% among 340,000. AID 651658;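 active means melting point raised past a set limit in the mean and every replicate; inconclusive means no clear call; three in four hits are not shown here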
# Target sequence (Q9HCT0 whole entry, looked up): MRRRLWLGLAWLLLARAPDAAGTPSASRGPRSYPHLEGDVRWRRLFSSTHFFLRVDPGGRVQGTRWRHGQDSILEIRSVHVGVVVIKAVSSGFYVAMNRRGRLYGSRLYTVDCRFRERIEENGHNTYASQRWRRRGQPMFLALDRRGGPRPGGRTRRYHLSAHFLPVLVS
# T cruzi repl: T. cruzi replication inhibition; inhibition, % (no concentration beside the values); AID 1885; T. cruzi beta-gal in NIH3T3, luminescence, 90 h; hit rate 1.4% among 300,000;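 active means mean inhibition across valid replicates above about 55%, limit read from the data; inconclusive means mean below that limit but half or more replicates reach it; inactive means mean below it, under half of replicates reach it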;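 further: signal also drops with host cell toxicity which is not excluded here; 0% = plate median of DMSO wells and 100% = zero luminescence signal; higher percent means less beta-gal luminescence so fewer parasites; stock transfer was 50 nL into about 50 µL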
# Ecoli rRNA inh: inhibits bacterial ribosomal RNA function over humanized ribosomes; E. coli WT GFP vs humanized-ribosome RFP mutants, fluorescence, 24 h; stronger effect = lower value; DMSO median 0, no signal -100; GFP signal change (wild-type ribosome), % (no concentration beside the values); hit rate 1.6% among 350,000;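 active means significant combined selectivity score with lowered wild-type GFP, culture density cut under 30%, mutant RFP and density less affected; inactive means any of these conditions unmet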; further: one replicate is shown; some compounds called inactive have numbers as strong as hits
# AF4-AF9 inh: blocks AF4 peptide binding to human AF9; P42568; AlphaScreen, biotin-AF4 peptide binding to FLAG-AF9; inhibition, % at 10 µM; hit rate 0.47% among 350,000;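 active means every replicate reaching a set inhibition limit, whatever the replicate mean, cut at about 25% in these data; inconclusive means mean inhibition reaches that limit but some replicates miss it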;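 further: 0% = plate neutral control median and 100% = total signal loss; the record names both 10 and 1 µM as test concentration; the first replicate is given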
# Target sequence (P42568 whole entry, looked up): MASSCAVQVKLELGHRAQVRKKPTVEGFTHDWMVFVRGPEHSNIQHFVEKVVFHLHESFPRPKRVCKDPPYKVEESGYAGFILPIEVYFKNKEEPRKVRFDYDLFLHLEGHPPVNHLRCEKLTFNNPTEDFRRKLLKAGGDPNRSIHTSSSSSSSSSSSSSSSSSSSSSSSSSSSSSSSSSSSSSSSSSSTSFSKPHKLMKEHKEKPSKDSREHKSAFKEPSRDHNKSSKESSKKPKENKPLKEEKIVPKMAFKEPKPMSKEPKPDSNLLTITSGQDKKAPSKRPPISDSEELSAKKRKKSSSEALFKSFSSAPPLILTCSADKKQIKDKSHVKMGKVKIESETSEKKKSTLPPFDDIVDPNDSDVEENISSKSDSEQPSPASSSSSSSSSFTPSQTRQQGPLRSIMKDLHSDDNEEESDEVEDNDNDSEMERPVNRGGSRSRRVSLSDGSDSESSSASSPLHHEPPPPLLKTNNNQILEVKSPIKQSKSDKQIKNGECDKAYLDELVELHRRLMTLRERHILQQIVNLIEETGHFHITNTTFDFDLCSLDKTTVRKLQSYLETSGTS
# Calb FLC: C. albicans growth modulation with fluconazole; C. albicans CaCi-2 (fluconazole-resistant clinical isolate) + fluconazole, Alamar Blue growth, 48 h; AID 1979; hit rate 0.57% among 300,000; growth inhibition, % (test concentration not listed);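 active means most replicates above 75%; inconclusive means exactly half above 75%; inactive means most below 75%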;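 further: all wells also contain fluconazole at 8 µg/ml as a sub-toxic cotreatment; 0% = median of DMSO wells and 100% = median of geldanamycin control wells; wells of about 8 µL received 7.5 nL stock; the first replicate is given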
# RanGTP-Imp inh: inhibitors of RanGTP-importin-beta interaction, primary screen, biochemical, FRET, CFP-Ran, YFP-importin-beta, homogeneous; cell-free CFP-Ran/YFP-importin-beta FRET ratio; inhibition, % (concentration not given with the values); hit rate 1.1% among 300,000;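 active means most replicates above 15%; inconclusive means exactly half above 15%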;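 further: 0% = DMSO wells and 100% = Ran loaded with GDP instead of GTP; wells of about 40 µL received 100 nL stock; the first replicate is given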
# ALR H2O2 inh: blocks human ALR sulfhydryl oxidase activity; purified ALR, DTT oxidation, H2O2 HRP-luminol luminescence; P55789; hit rate 3.8% among 290,000; AID 485317; inhibition, % (no concentration beside the values);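 active means mean and each replicate at 75% or more; inconclusive means only one of the two met; inactive means neither met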;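 further: stock transfer was 7.5 nL into about 7.5 µL; 0% = neutral wells and 100% = wells with inactivated enzyme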
# Target sequence (P55789 whole entry, looked up): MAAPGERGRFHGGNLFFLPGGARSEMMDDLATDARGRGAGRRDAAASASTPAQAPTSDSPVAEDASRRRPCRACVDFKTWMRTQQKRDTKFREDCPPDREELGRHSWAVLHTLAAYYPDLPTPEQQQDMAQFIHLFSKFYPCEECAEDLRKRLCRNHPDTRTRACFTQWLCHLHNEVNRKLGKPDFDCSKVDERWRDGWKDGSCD
# Beta cell apopt: beta cell apoptosis inhibition; protection from apoptosis, % (no concentration beside the values); hit rate 0.8% among 300,000; AID 435005; INS-1E cytokine-induced death, ATP luminescence, 48 h; percent of positive-control rescue, neutral wells zero;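 active means all replicates at 75% or more, or half of them and the mean; inconclusive means half reach 75% but not the mean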;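 further: 0% = cytokine-treated negative control wells and 100% = positive control rescue; higher means more ATP so stronger rescue from cytokine killing; wells of about 40 µL received 100 nL stock; the first replicate is given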
# Ecoli rRNA inh OD600: recorded beside Ecoli rRNA inh, whose call it bears; OD600 change, %; measured here: OD600 growth;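 optical density of the mix in the first replicate; 0 = DMSO median and -100 = no signal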
# Ecoli rRNA inh RFP: also measured in Ecoli rRNA inh; calls as there; RFP signal change, %; measured here: RFP humanized mutant strains;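 first replicate; 0 = DMSO median and -100 = no signal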
# * marks the source's active call; other numbers are inactive results; i = inactive; ? = inconclusive; . = not tested or not shown; & = joins results of further samples. A portion of the library; the hit share may differ from the screen's.
SMILES	FGF22 binding	T cruzi repl	Ecoli rRNA inh	Ecoli rRNA inh OD600	Ecoli rRNA inh RFP	AF4-AF9 inh	Calb FLC	RanGTP-Imp inh	ALR H2O2 inh	Beta cell apopt
Cc1ccc(Cn2ccc(-c3cnc(-c4ccccc4)s3)n2)cc1	.	17	.	.	.	.	-6	5.3	-4	-7
O=C(Nc1nccs1)c1ccc2c(c1)C(=O)N(Cc1cccnc1)C2=O	i	-13	13	20	0.0	0.0	-5	-1.3	-4	-17
CCCCn1c(N)c(N(CCOC)C(=O)c2sc3cc(F)ccc3c2Cl)c(=O)[nH]c1=O	i	2	5	-4	-1.6	-1.5	4	-2.3	-6	-1
COc1ccc(C2/C(=C(/O)c3ccc(Cl)cc3)C(=O)C(=O)N2CCN2CCOCC2)c(OC)c1 (centres undefined)	.	3	.	.	.	.	24	4.6	-3	-4
COC(=O)c1cc(NC(=S)N2CCN(C(=O)C3CCCO3)CC2)cc(C(=O)OC)c1 (centres undefined)	.	6	16	5	2.8	-1.9	-4	6.9	11	0
CCN(CC(=O)NCCCN1CCOCC1)S(=O)(=O)c1ccc(Cl)cc1	i	-1	5	5	-2.7	0.2	1	-2.1	0	-4
C=CCNC(=O)c1c(C(F)(F)F)nn(C)c1Cl	.	-12	18	16	1.1	-1.2	4	0.2	-12	-1
CC1CCN(S(=O)(=O)c2ccc3c(c2)NC(=O)CS3)CC1	i	5	-2	-12	2.1	-0.2	1	-0.8	3	1
CCN(CC)S(=O)(=O)c1ccc(C(=O)NCCCN=C2NS(=O)(=O)c3ccccc32)cc1	.	6	.	.	.	.	-7	1.8	-3	-8
Cc1cc2cc(CNC(=S)Nc3ccc(OC(F)F)cc3)ccc2[nH]1	i	13	3	10	1.6	1.1	-5	-1.8	-6	-7

# Grouped by structure: those above with an NH in an aromatic ring (two)
SMILES	FGF22 binding	T cruzi repl	Ecoli rRNA inh	Ecoli rRNA inh OD600	Ecoli rRNA inh RFP	AF4-AF9 inh	Calb FLC	RanGTP-Imp inh	ALR H2O2 inh	Beta cell apopt
CCCCn1c(N)c(N(CCOC)C(=O)c2sc3cc(F)ccc3c2Cl)c(=O)[nH]c1=O	i	2	5	-4	-1.6	-1.5	4	-2.3	-6	-1
Cc1cc2cc(CNC(=S)Nc3ccc(OC(F)F)cc3)ccc2[nH]1	i	13	3	10	1.6	1.1	-5	-1.8	-6	-7

# Other structures follow.
SMILES	FGF22 binding	T cruzi repl	Ecoli rRNA inh	Ecoli rRNA inh OD600	Ecoli rRNA inh RFP	AF4-AF9 inh	Calb FLC	RanGTP-Imp inh	ALR H2O2 inh	Beta cell apopt
COC(=O)NC1CSCC1OC(=O)c1ccc(Br)cc1 (centres undefined)	.	-12	.	.	.	.	25	1.7	-9	1
COc1ccc(NC(=O)O/N=C2/CCCc3ccc(OC)cc32)cc1	.	-4	.	.	.	.	22	-0.9	-16	.
COc1ccc2c(c1)-c1c(ssc1=S)C(C)(C)N2C(=O)CSC1=NCCS1	.	32	.	.	.	.	16	-8.9	14	-3
COc1ccc(NC(=O)c2cc(-c3ccco3)on2)cc1OC	i	-12	10	5	4.3	-1.4	-3	3.5	.	5
CC(O)(C#CCN1CCCC1)c1ccccc1 (centres undefined)	.	-8	.	.	.	.	-6	-2.1	3	-5
CC(C)(C)C(=O)NC(=O)Nc1ccccc1C(F)(F)F	i	1	4	-1	-0.8	0.4	-1	-5.1	-14	2
OC(COc1ccc(OCC(O)CN2CCCCC2)cc1)CN1CCCCC1 (centres undefined)	i	5	19	24	0.4	-1.3	-5	3.4	-27	-6
C[C@H](CO)N1C[C@H](C)[C@@H](CN(C)S(=O)(=O)c2ccccc2)Oc2c(NC(=O)NC3CCCCC3)cccc2C1=O	i	.	-6&5	-6&8	-0.8&4.2	0.0&-0.2	.	.	-2	-1
COc1cc(C(=O)OCC(=O)N(CC(C)C)C2CCS(=O)(=O)C2)cc(OC)c1C (centres undefined)	i	.	.	.	.	1.6	.	.	-2	-6
O=C(NCCN1C(=O)S/C(=C\c2ccc(Cl)cc2Cl)C1=O)C1=COCCO1	i	2	-5	-17	-0.8	0.0	-8	6.6	4	3

# Continuation:
SMILES	FGF22 binding	T cruzi repl	Ecoli rRNA inh	Ecoli rRNA inh OD600	Ecoli rRNA inh RFP	AF4-AF9 inh	Calb FLC	RanGTP-Imp inh	ALR H2O2 inh	Beta cell apopt
O=C(Nc1cccc(C(F)(F)F)c1)C1=CC=CN2CCS(=O)(=O)N=C12	i	.	24	16	-0.7	0.3	.	.	0	4
COCCNC(=O)CSc1nc2cc(OC)c(OC)cc2c(=O)n1CCc1ccc(S(N)(=O)=O)cc1	.	-3	16	13	2.6	-1.2	7	-2.7	.	0
COC(=O)C1=C(C(=O)c2ccccc2)C(c2cccs2)n2nnnc2N1 (centres undefined)	.	-3	.	.	.	.	-1	2.4	7	-4
CSc1cc(CS(=O)(=O)c2ccccc2)nc(-c2ccccc2)n1	i	3	-5	-14	1.8	0.3	27	-1.3	-5	-1
COC(=O)Cc1c(C)c2ccc(O)c(CNCc3ccc(OC)c(OC)c3)c2oc1=O	i	-3	-8	-10	2.4	2.2	-4	33*	-3	-1
COc1ccc(C(=O)N/C(=C\c2cn(C)c3ccccc23)C(=O)NCCCn2ccnc2)cc1OC	i	-2	5	5	-1.5	8.6	10	-4.5	5	0
CCN(CC)CCCN=C(N)N	i	-5	20	7	-0.2	6.9	4	2.7	3	-6
Cc1cccc(C)c1NCc1nnc(SCC(=O)Nc2nc(-c3ccccc3)cs2)n1-c1ccccc1	i	12	10	8	-6.2	-19	35	-1.4	.	3
Cc1cc(-c2ccccc2)nc(N(C)C)c1S(C)(=O)=O	i	-10	-26	-43	-7.5	1.4	-15	3.1	1	-4
CN(C)c1ccc(NC(=O)CSc2nc3ccccc3c(=O)n2CC2CCCO2)cc1 (centres undefined)	i	0	12	5	0.3	2.2	-18	-1.6	87*	-6

# (next part)
SMILES	FGF22 binding	T cruzi repl	Ecoli rRNA inh	Ecoli rRNA inh OD600	Ecoli rRNA inh RFP	AF4-AF9 inh	Calb FLC	RanGTP-Imp inh	ALR H2O2 inh	Beta cell apopt
O=C(Nc1ccc2c(c1)OCCO2)c1ccc(Cl)c(S(=O)(=O)N2CCOCC2)c1	.	11	.	.	.	.	-7	?	-3	4
COc1ccc(C)cc1S(=O)(=O)n1cnc2ccccc21	i	12	12	5	4.8	-1.6	2	0.7	-3	-5
O=C(O)c1ccccc1Sc1ncnc2sccc12	i	-12	11	2	2.4	-0.8	3	-0.6	-24	-4
Cc1nnc(NCCO)c2ccccc12	.	-25	.	.	.	.	-3	-2.8	-9	-5
O=S(=O)(c1cccc(-c2csc(-c3cccnc3)n2)c1)N1CCCCC1	.	50	.	.	.	.	46	3.3	98*	10
CS(=O)(=O)N(Cc1ccc(C(=O)Nc2ccccc2Sc2ccccc2)cc1)c1ccccc1	.	30	.	.	.	.	-4	-2.7	-5	-9
COc1ccc(-c2nn(C)c(=O)c3ccccc23)cc1CNC(=O)C1CCCCC1	i	11	-8	-9	-1.8	-1.7	2	2.8	.	.
O=C(CCS(=O)(=O)c1ccccc1)OCC(=O)N1CCN(S(=O)(=O)c2ccc(Cl)cc2)CC1	i	-5	14	4	-0.1	-1.0	-5	-0.8	-2	0
Brc1ccc(CSc2nnc3ccccn23)cc1	i	-3	-5	3	-0.7	.	-9	-2.2	0	5
COc1ccc(OC)c(C2C(C(C)=O)=C(O)C(=O)N2c2ccc(F)cc2)c1 (centres undefined)	.	-6	.	.	.	.	-10	-1.7	-9	5

# Other entries
SMILES	FGF22 binding	T cruzi repl	Ecoli rRNA inh	Ecoli rRNA inh OD600	Ecoli rRNA inh RFP	AF4-AF9 inh	Calb FLC	RanGTP-Imp inh	ALR H2O2 inh	Beta cell apopt
CCn1nnc(-c2ccccc2NC(=O)c2cc(OC)c(OC)c(OC)c2)n1	i	15	4	-3	0.2	1.1	0	-2.7	-16	.
CCOc1ccc2cc(S(=O)(=O)N3CCOCC3)ccc2c1	.	6	.	.	.	.	15	4.7	-8	-3
CC(C)(O[C@@H]1O[C@H](CO)[C@@H](O)[C@H](O)[C@H]1O)[C@@H]1CC=C(C(=O)O)CC1	i	.	-2	-2	-10	0.6	.	.	2	1
O=C(COC(=O)c1cnccn1)c1ccc(Br)cc1	.	-10	.	.	.	.	-2	-1.4	-12	-9
Cc1ccc(S(=O)(=O)NC2=NCN(CC(=O)O)CN2)cc1	i	-8	1	6	-2.9	1.6	-7	-0.8	0	-1
O=c1nccc(SCc2ccc(Cl)cc2Cl)[nH]1	i	-6	-10	-4	0.1	-1.2	-4	1.2	99*	-3
CC(=O)Nc1ccc(S(=O)(=O)Nc2nccs2)cc1	i	7	6	6	-0.6	1.5	-6	-3.1	4	.
COc1ccc(OCC(=O)Nc2ccc(NC(=O)c3cccs3)cc2)cc1	i	2	7	4	-2.0	-1.5	0	3.1	.	2
O=C1Nc2ccccc2/C1=C\c1cccn1-c1ccc(OC(F)(F)F)cc1	.	35	.	.	.	.	3	-1.4	-5	.
C[C@@H]1C(=O)O[C@@H]2CC34[C@H]5C[C@@H](C(C)(C)C)C36[C@H](OC(=O)[C@@H]6O)OC4(C(=O)O5)[C@@]12O (some centres undefined)	i	-8	10	7	1.0	.	25	4.6	-17	-4

# The results go on:
SMILES	FGF22 binding	T cruzi repl	Ecoli rRNA inh	Ecoli rRNA inh OD600	Ecoli rRNA inh RFP	AF4-AF9 inh	Calb FLC	RanGTP-Imp inh	ALR H2O2 inh	Beta cell apopt
Cc1ccc(C(=O)NCCCN2CCOCC2)o1	.	-9	.	.	.	.	-5	2.5	-1	-2
Cc1nccn1S(=O)(=O)c1cc([N+](=O)[O-])ccc1Cl	.	-15	.	.	.	.	-2	2.7	-6	-6
CCOC(=O)C1C2C=CC3(CN(Cc4ccco4)C(=O)C13)O2 (centres undefined)	.	-11	.	.	.	.	2	-0.6	0	-5
Cc1ccc(C(=O)N/C(=C/c2ccc(N(C)C)cc2)C(=O)NCC2CCCO2)cc1 (centres undefined)	i	-9	0	3	-2.8	0.2	-5	?	87*	-3
CC(=O)c1c(C)[nH]c(C(=O)Nc2c(C)n(C)n(-c3ccccc3)c2=O)c1C	.	4	.	.	.	.	1	-1.7	-4	-4
C=CCNC(=O)c1scc2c1CCCC2	.	3	.	.	.	.	1	0.5	-4	-1
COc1ccc(NC(=O)CSc2nnc(-c3ccncc3)o2)c([N+](=O)[O-])c1	i	1	-8	-3	3.2	2.7	-1	1.9	-10	-9
Cc1cc(S(=O)(=O)Nc2ccc(C(=O)NCc3ccncc3)cc2)ccc1F	i	-5	-4	-6	-0.7	2.9	-1	.	3	-5
CCCCn1c(N)c(N(CC(C)C)C(=O)CCC2CCCCC2)c(=O)[nH]c1=O	i	6	5	2	-0.2	3.8	-4	?	0	-3
CCCCSc1nc(O)c(C2OC(=O)c3c2ccc(OC)c3OC)c(=O)n1-c1ccccc1 (centres undefined)	.	7	.	.	.	.	3	9.9	7	-3
O=C(CN1C(=O)C2C3C=CC(C3)C2C1=O)N1CC=C(c2ccccc2)CC1 (centres undefined)	.	1	.	.	.	.	9	2.3	-5	-5

# High-throughput results from PubChem.
